ugtP null kill = growth inhibition of S. aureus ugtP deletion strain | S. aureus RN4220 ugtP deletion, OD600 growth, 16 h; some inactives read as strong as hits | growth inhibition, % (concentration not given with the values) | actives 0.54% (n = 330,000) | AID 1259309;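 active = z-score under -3 and OD600 up to 0.15 on both plates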;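 also: plate controls were untreated wells for no effect and antibiotic for full effect; wells of about 80 µL received 100 nL stock; the first replicate is given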
Autofluor counter = flagged as autofluorescent in microsphere protease counterscreen. compound autofluorescence counterscreen, microsphere flow cytometry; hits give high values. fluorescence intensity (test concentration not listed). actives 3.1% (n = 360,000);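 active = at least 3 SD above the mean of all compounds, about 16000 in these data; inconclusive = too few beads counted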;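 also: 100 nL of 1 mM stock went into each well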
BJeLR lethal = kills HRASV12-expressing BJeLR cells | actives 0.17% (n = 300,000) | inhibition, % (concentration not given with the values) | BJeLR (HRASV12) viability, CellTiter-Glo ATP luminescence, 48 h; reference of the scale not given here | AID 1554;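 active = replicate mean above 50%; inconclusive = above 50% but judged a plate artefact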;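 also: 50 nL library stock added to about 25 µL; numbers are from one replicate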
PrP UTR inh = suppresses PrP 5' UTR mRNA reporter expression | cell-based PrP 5' UTR mRNA reporter, plate reader | inhibition, % (concentration not given with the values) | actives 0.35% (n = 340,000) | AID 488862;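 active = every replicate at 50% or more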;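 also: 0 = median of the neutral control wells; tested in H4 reporter cells; numbers are from one replicate; inactives centre near -14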
Sa RN4220 lethal = S. aureus RN4220 growth inhibition; inhibition, % (test concentration not listed); actives 0.33% (n = 330,000); AID 1259311; OD600, 16 h;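 active = z-score of -3 or lower and OD600 up to 0.18 on both plates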;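 also: plate controls were untreated cells for no effect and reference antibiotic for full effect; stock transfer was 100 nL into about 80 µL; one replicate is shown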
Mtb hypoxia rep = Mtb hypoxia fluorescent reporter inhibition | M. tuberculosis hypoxia-regulated fluorescent reporter, fluorescence | actives 0.1% (n = 300,000) | fluorescence inhibition, % (concentration not given with the values);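 active = 35 to 45% if threefold the growth effect, above 45% if 1.5-fold the growth effect; inactive = the rest, general growth blockers included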;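 also: wells of about 50 µL received 100 nL stock; 0% = vehicle wells and 100% = reference inhibitor wells; whole bacteria with a GFP reporter of the hypoxia response; strong numbers were not always called active; many hits fall short of the cut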
Mtb hypoxia rep growth = further read-out of Mtb hypoxia rep, marked with its call; growth inhibition, %; measured here: M. tuberculosis growth (absorbance);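 0% = vehicle and 100% = reference antibiotic; read after six days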
An asterisk follows results filed as active; ? = inconclusive; . = not tested or not shown. No enrichment for hits; about 4% have a hit in one of these screens.

1	N#Cc1sc(NCc2ccccn2)nc1Cl
2	O=C(CS(=O)(=O)Cc1ccccc1)N1CCN(C(=O)c2ccco2)CC1
3	O=C1CCN(C(=O)Nc2cccc(Cl)c2)N1
4	O=C(COc1cccc(C(F)(F)F)c1)Nc1ccc(S(=O)(=O)N2CCCC2)cc1
5	CCN(CC(=O)Nc1ccc2c(c1)OCCO2)C(=O)CC(NC(C)=O)c1ccccc1 (stereo not drawn)
6	c1coc(-c2nc3c4c5c(sc4ncn3n2)CCCC5)c1

entry no.	1	2	3	4	5	6
ugtP null kill	-1.7	-4.8	-4.2	-25.2	-2.0	-12.7
Autofluor counter	3613	9079	22772*	25851*	4963	10360
BJeLR lethal	-0.2	0.7	-10.8	.	17.7	0.4
PrP UTR inh	-15.2	-19.1	-11.5	-22.9	-11.6	-16.7
Sa RN4220 lethal	2.9	4.0	1.3	0.0	-1.1	3.7
Mtb hypoxia rep	-9.3	1.0	-10.2	-6.4	-0.3	20.5
Mtb hypoxia rep growth	-0.3	13.1	8.3	-7.1	-4.9	12.9

7	N#C/C=C\Oc1ccc(Cl)cc1N
8	CC(/C=C/c1ccccc1F)=N\NC(=O)c1ccc(Cl)cc1
9	CN(CCc1ccccn1)C1CCCN(S(=O)(=O)c2ccc(F)c(Cl)c2)C1 (stereo not drawn)
10	Cc1onc(-c2c(Cl)cccc2Cl)c1C(=O)ON=C(C#N)c1ccccc1
11	CCOC(=O)c1cnc(SC2CC(=O)N(c3cccc(OC)c3)C2=O)nc1N (stereo not drawn)
12	CCN(CC)C(=S)SCC(=O)Nc1ccc(F)cc1

entry no.	7	8	9	10	11	12
ugtP null kill	-7.1	.	-6.1	3.0	10.7	0.1
Autofluor counter	23099*	2636	6509	.	3383	3485
BJeLR lethal	18.6	1.2	-5.2	.	-4.0	2.8
PrP UTR inh	-13.0	1.0	-12.2	.	-6.7	-41.5
Sa RN4220 lethal	-2.1	.	-4.8	-0.3	3.1	3.5
Mtb hypoxia rep	-10.3	.	-1.6	4.1	.	0.6
Mtb hypoxia rep growth	-18.9	.	3.9	-2.0	.	4.6

Individual results from the list:
Sa RN4220 lethal result of #9 is entered as -4.8
Mtb hypoxia rep growth result of #10 is entered as -2.0
BJeLR lethal result of #8 is entered as 1.2
PrP UTR inh result of #11 is entered as -6.7

Next compounds.
13	O=C(NC1CCS(=O)(=O)C1)c1cnccn1 (stereo not drawn)
14	O=C(Oc1coc(CSc2ncccn2)cc1=O)c1cccc([N+](=O)[O-])c1
15	CCOc1ccc(NC(=O)COC(=O)C23CC4CC(CC(C4)C2)C3)c([N+](=O)[O-])c1
16	Cc1ccsc1/C=N/Nc1ncnc2nc[nH]c12
17	Cc1ccc(-c2nc3ccccn3c2NC(=O)c2ccco2)cc1
18	O=C1CSc2ccc(S(=O)(=O)N3CCN(c4ccccc4)CC3)cc2N1

entry no.	13	14	15	16	17	18
ugtP null kill	-0.6	20.3	0.2	.	9.9	-1.6
Autofluor counter	2879	6078	7285	4528	6801	5368
BJeLR lethal	-2.9	-0.1	3.1	2.1	11.8	5.6
PrP UTR inh	-8.3	-34.4	-5.4	-55.7	-11.2	-4.0
Sa RN4220 lethal	2.2	4.2	1.8	.	2.5	3.0
Mtb hypoxia rep	4.3	-1.5	4.1	.	5.7	-6.6
Mtb hypoxia rep growth	13.5	3.1	9.3	.	5.5	-4.1

19	O=C(Cc1ccc([N+](=O)[O-])cc1)Nc1cccnc1
20	COc1ccccc1N=Nc1c(C)[nH][nH]c1=O
21	COc1cccc(NC(=O)CN(C)C(=O)c2cc(-c3ccc(F)cc3)nc3ccccc23)c1
22	O=C(Nc1ccc2nc(-c3ccccc3)[nH]c2c1)c1cccs1
23	Cc1nc2cc(C)c(C)cc2o1
24	CCOC(=O)C(NC(C)=O)C(=O)O (stereo not drawn)

entry no.	19	20	21	22	23	24
ugtP null kill	1.1	8.4	-3.7	-3.2	6.4	-1.0
Autofluor counter	4598	3968	?	7827	3045	2868
BJeLR lethal	2.7	2.8	3.0	3.4	.	0.0
PrP UTR inh	-20.2	-9.9	-34.8	-85.0	-19.3	-11.2
Sa RN4220 lethal	-0.2	3.2	-3.7	-5.9	3.9	-15.7
Mtb hypoxia rep	9.3	19.3	8.0	6.0	12.2	8.6
Mtb hypoxia rep growth	2.9	-1.1	-0.4	-1.1	10.3	4.7

25	O=C(CN1C(=O)NC2(CCCCCC2)C1=O)c1ccc(Cl)s1
26	O=C(OCc1c(F)cccc1Cl)c1cc([N+](=O)[O-])ccc1N1CCOCC1
27	CN(C(=O)c1nn(C)c2c1CS(=O)(=O)c1ccccc1-2)c1cccc(Cl)c1
28	CCOc1ccccc1Nc1nc2ccc(C)cc2n2cnnc12
29	CCOC(=O)N1CCN(C(=O)C(NC(=O)C2CCC(C)CC2)C(C)C)CC1 (stereo not drawn)
30	O=C(NCc1n[nH]c(=S)n1-c1cccc(C(F)(F)F)c1)c1ccc(S(=O)(=O)N2CCCCC2)cc1

entry no.	25	26	27	28	29	30
ugtP null kill	2.6	8.0	0.5	-6.2	6.8	16.0
Autofluor counter	.	5604	5637	4790	3541	3825
BJeLR lethal	-4.8	-0.8	-2.9	11.2	-1.9	-12.2
PrP UTR inh	-7.8	4.2	-11.3	-5.0	-71.5	-16.9
Sa RN4220 lethal	2.3	0.8	2.6	4.5	4.0	5.7
Mtb hypoxia rep	0.5	8.9	-1.2	8.0	18.2	10.4
Mtb hypoxia rep growth	2.4	5.4	7.1	4.2	15.3	4.8

31	CSc1ccccc1NC(=O)CN(c1cc(C)cc(C)c1)S(C)(=O)=O
32	C=CCOc1ccc(C2/C(=C(\O)c3ccc4c(c3)CC(C)O4)C(=O)C(=O)N2CCN2CCOCC2)cc1OCC (stereo not drawn)
33	COc1cc(-c2cc(C(=O)Nc3cc(S(=O)(=O)N4CCOCC4)ccc3O)c3ccccc3n2)cc(OC)c1OC
34	O=C(OCC(=O)N1CCc2ccccc21)c1ccccc1
35	CN(C)c1ccc(C=NNC(=S)Nc2ccc(F)cc2)cc1
36	Cc1ccc(C=NNc2ccc([N+](=O)[O-])cn2)cc1

entry no.	31	32	33	34	35	36
ugtP null kill	5.7	0.5	-6.8	-0.5	6.8	-11.2
Autofluor counter	3258	6188	5473	2927	3131	2934
BJeLR lethal	-11.4	0.3	.	0.5	.	.
PrP UTR inh	-13.2	-4.5	-19.9	-43.5	-68.2	-140.4
Sa RN4220 lethal	6.1	1.8	5.7	-7.7	0.4	0.1
Mtb hypoxia rep	0.4	5.5	-2.3	6.4	13.1	24.8
Mtb hypoxia rep growth	-0.2	12.2	1.0	6.6	9.8	7.0

37	CC(C)N1CCC(N2CCN(C3CCCC3)CC2CCO)CC1 (stereo not drawn)
38	O=C(NNC1=Nc2ccccc2SC1)c1ccccc1F
39	COc1cc2c3cc1Oc1cc(ccc1O)C[C@@H]1c4c(cc(OC)c(O)c4Oc4ccc(cc4)C[C@H]3N(C)CC2)CCN1C
40	CN(C)c1cccc(C(=O)n2cc(C(=O)c3cc(F)ccc3O)cn2)c1
41	O=S(=O)(c1ccc(Cl)cc1)N1CCN(Cc2c[nH]c3ccccc23)CC1
42	Cc1ccc(-n2nc3c(c2NC(=O)c2ccco2)CS(=O)(=O)C3)cc1

entry no.	37	38	39	40	41	42
ugtP null kill	.	1.6	.	3.6	-10.2	1.7
Autofluor counter	4603	5268	6208	2810	10604	5122
BJeLR lethal	11.4	11.5	11.6	-7.2	0.3	9.0
PrP UTR inh	-10.7	-26.8	-4.1	-39.5	3.2	-9.1
Sa RN4220 lethal	.	-0.1	.	2.4	-4.9	2.0
Mtb hypoxia rep	.	8.4	.	.	-7.6	-4.9
Mtb hypoxia rep growth	.	-15.4	.	.	3.7	8.5

43	CN(C)CC/C=C1\c2ccc(F)cc2Sc2cc(F)c(Cl)cc21
44	CCOC(=O)c1sc(C)c2c(=O)n(CCc3ccccc3)nnc12
45	COc1ccc(C(C(=O)NC2CCCCC2)N(C(=O)c2cccs2)c2ccc3c(c2)OCO3)cc1 (stereo not drawn)
46	C=C1CCN([C@@H](Cc2ccccc2)C(=O)NCc2ccccc2)S(=O)(=O)c2ccccc21
47	COc1ccccc1/C=C1\SC(=S)N(CCC(=O)Nc2cc(C)on2)C1=O
48	NNC(=O)CCN1CCCCC1

entry no.	43	44	45	46	47	48
ugtP null kill	-40.4	0.4	0.4	.	-1.6	7.4
Autofluor counter	4679	3818	5461	2833	3462	4034
BJeLR lethal	4.9	3.0	-3.4	-8.9	2.1	-11.0
PrP UTR inh	.	-12.4	-22.9	-3.2	-25.3	-16.3
Sa RN4220 lethal	-12.5	-8.3	1.8	.	2.2	2.5
Mtb hypoxia rep	.	15.9	4.7	.	5.4	-3.5
Mtb hypoxia rep growth	.	5.2	5.1	.	9.1	1.6

Quoted at random: 4 entries already listed
45	COc1ccc(C(C(=O)NC2CCCCC2)N(C(=O)c2cccs2)c2ccc3c(c2)OCO3)cc1 (stereo not drawn)
46	C=C1CCN([C@@H](Cc2ccccc2)C(=O)NCc2ccccc2)S(=O)(=O)c2ccccc21
48	NNC(=O)CCN1CCCCC1
47	COc1ccccc1/C=C1\SC(=S)N(CCC(=O)Nc2cc(C)on2)C1=O

entry no.	45	46	48	47
ugtP null kill	0.4	.	7.4	-1.6
Autofluor counter	5461	2833	4034	3462
BJeLR lethal	-3.4	-8.9	-11.0	2.1
PrP UTR inh	-22.9	-3.2	-16.3	-25.3
Sa RN4220 lethal	1.8	.	2.5	2.2
Mtb hypoxia rep	4.7	.	-3.5	5.4
Mtb hypoxia rep growth	5.1	.	1.6	9.1

The list goes on.
49	CCOC(=O)N1CCN(Cc2nc(-c3ccc(Cl)cc3)no2)CC1
50	O=C(Nc1cc(S(=O)(=O)Nc2ccc(Cl)cc2)ccc1N1CCCCC1)c1ccc(F)cc1Cl
51	Cc1cc(C(=O)Cn2cnc3ccccc3c2=O)c(C)n1C1CC1
52	O=C(CN1C(=O)c2ccccc2C1=O)OCC(=O)N1CCCCC1
53	CCN(CC)c1ccc(NC(=S)Nc2ccc(F)cc2)cc1
54	Cc1ccc(-c2nn(-c3ccccc3)cc2C(=O)NCC2CCCO2)cc1 (stereo not drawn)

entry no.	49	50	51	52	53	54
ugtP null kill	-2.1	-22.4	9.5	-0.4	-3.4	4.8
Autofluor counter	3031	2592	?	4155	3815	6136
BJeLR lethal	-0.4	3.5	-11.8	.	2.9	7.9
PrP UTR inh	12.8	-0.5	-38.5	-40.4	-21.0	-14.4
Sa RN4220 lethal	1.0	-7.3	5.2	2.2	4.2	-1.8
Mtb hypoxia rep	1.1	5.1	6.7	2.8	.	-3.3
Mtb hypoxia rep growth	0.0	3.6	-1.5	-5.4	.	9.8

55	Cc1ccc(-n2nc3c(=O)n(CCCC(=O)NC4CCC(C)CC4)nc(C)c3c2C)cc1 (stereo not drawn)
56	COc1ccc(S(=O)(=O)NC2CC3CCC2C3)cc1Cl (stereo not drawn)
57	O=C(O)Cn1nnc(-c2cccs2)n1
58	COc1ccccc1CNC(=O)Cc1ccc(C)cc1
59	Cc1cc(NC(=O)CSc2nc(-c3ccccc3Cl)nc3c2c(=O)n(C)c(=O)n3C)no1
60	Cc1ccc(N=Nc2c(N)[nH]n3c(=O)cc(C)nc23)cc1

entry no.	55	56	57	58	59	60
ugtP null kill	0.3	11.5	-2.2	6.4	-73.2	7.1
Autofluor counter	4421	11162	3203	3237	4670	2512
BJeLR lethal	-8.2	-12.0	6.4	7.3	-20.0	9.5
PrP UTR inh	-1.5	-10.7	10.8	-18.7	-11.4	-43.6
Sa RN4220 lethal	2.0	6.7	-15.7	5.3	7.5	0.3
Mtb hypoxia rep	2.4	1.0	-1.5	22.3	11.8	6.5
Mtb hypoxia rep growth	5.2	-2.6	4.7	7.8	8.0	0.9

Screening results from PubChem.
